H5N1 antiviral = MDCK cell protection from H5N1 avian flu. cytopathic effect, luminescence, 72 h; hits give high values; no value below 0 was filed and about half of the inactive calls have no number; reference of the scale not given here. inhibition, % at 50 µM. 96,000 tested, 0.07% active; in the data active = inhibition above about 25%
Numbers without * were called inactive; i = inactive.

The first 4 records, ahead of the listing:
Molecule | H5N1 antiviral
Cc1ccc(C(=O)N2CCN(Cc3ccc4c(c3)OCO4)CC2)o1 | 0.2
O=C(NCC1CCCO1)C1CCCCN1S(=O)(=O)c1ccc(F)cc1 (stereo not drawn) | i
Cc1ccsc1/C=C/C1=Cc2c(sc(NC(=O)CSc3n[nH]c(N)n3)c2C#N)C(C)(C)C1 | 0.6
CN(C(=O)C12CC3CC(CC(C3)C1)C2)C1(C)CCS(=O)(=O)C1 (stereo not drawn) | 2.6

This part in full (from the top)
Molecule | H5N1 antiviral
Cc1ccc(C(=O)N2CCN(Cc3ccc4c(c3)OCO4)CC2)o1 | 0.2
O=C(NCC1CCCO1)C1CCCCN1S(=O)(=O)c1ccc(F)cc1 (stereo not drawn) | i
Cc1ccsc1/C=C/C1=Cc2c(sc(NC(=O)CSc3n[nH]c(N)n3)c2C#N)C(C)(C)C1 | 0.6
CN(C(=O)C12CC3CC(CC(C3)C1)C2)C1(C)CCS(=O)(=O)C1 (stereo not drawn) | 2.6
COC(=O)CSc1ccccc1C(=O)OC | 0.8
O=C(Nc1nc(-c2nc3ccccc3s2)cs1)c1ccc(S(=O)(=O)N2CCOCC2)cc1 | i
COc1ccc(Cl)cc1NC(=O)c1c(-c2ccccc2)noc1C | i
CCC1=NC(c2ccccc2)N(O)C1(C)C (stereo not drawn) | i
Cc1ccc(-c2noc(C3CCCN(C(=O)c4ccccc4)C3)n2)o1 (stereo not drawn) | i
CC1=C(C(=O)NC2CCCC(C)C2C)C2(CCCCC2)OC1=O (stereo not drawn) | 0.9
COc1ccc(CCNC2CCN(C)CC2)cc1OC | i
CCOC(=O)c1cc(-c2nnc(SCC(=O)Nc3ccc(F)cc3)o2)c(C)nc1C | 0.2
COc1ccccc1N1CCN(C(=O)CSc2ccc3c(C)cc(C)nc3n2)CC1 | 1.9
COC(=O)c1cc(NC(=O)CN2C(=O)CSC2=O)ccc1Cl | 0.1
COc1ccc(C(=O)CSc2nnc(-c3cccs3)n2-c2ccccc2)cc1 | 0.1
CSCCC1NC(=O)N(CC(=O)Nc2ccc(N3CCCCC3)cc2)C1=O (stereo not drawn) | i
CCc1ccccc1NC1=NCC(=O)N1C1CCCCC1 | 0.5
COC(=O)c1ccccc1NC(=O)CSc1nc2ccccc2c(=O)[nH]1 | 0.1
CCOC(=O)NC(NC(=S)Nc1ccccc1[N+](=O)[O-])C(Cl)(Cl)Cl (stereo not drawn) | 0.3
Cc1nc2cc(NC(=O)CSc3nc4c(C)cccc4cc3C#N)ccc2s1 | i
COc1ccc2c(c1)c(=O)oc1cc3oc(C)c(C)c3cc12 | 2.0
CCCC(=O)Nc1ccc(S(=O)(=O)N2CCCC2)cc1 | i
O=S(=O)(c1ccc(F)cc1)n1ccc2cccnc21 | 0.8
CC(=O)NCCc1ccc(S(=O)(=O)Nc2cccnc2)cc1 | i
COc1cc(C)c(Cl)cc1S(=O)(=O)NCCCN1CCOCC1 | 0.7
CCOC(=O)c1ccc2c(c1)nc(COc1ccc3ccccc3c1)n2CC | 1.4
Cc1cc(Cl)c(S(=O)(=O)Nc2ccc3c(c2)OCCO3)cc1OCC(N)=O | 1.0
Cc1nn(C)c(C)c1CN(C)C(=O)c1cc2nc(-c3ccco3)cc(C(F)(F)F)n2n1 | 0.2
COc1ccc(-c2cc(N)n(S(=O)(=O)c3c(F)c(F)c(F)c(F)c3F)n2)cc1OC | 14
O=C(Nc1ccon1)c1cccc(C(F)(F)F)c1 | i

Brought forward from above: 2 entries; new compounds follow.
Molecule | H5N1 antiviral
COc1ccc(-c2cc(N)n(S(=O)(=O)c3c(F)c(F)c(F)c(F)c3F)n2)cc1OC | 14
O=C(Nc1ccon1)c1cccc(C(F)(F)F)c1 | i
O=C(COc1ccccc1)Nc1ccccc1N1CCN(c2ccccc2)CC1 | 0.6
CCOc1ccc(S(=O)(=O)Nc2ccc(S(=O)(=O)N3CCOCC3)cc2)cc1 | 2.2
C=CCOC(=O)c1[nH]c2c(c1C)C(=O)CC(c1ccco1)C2 (stereo not drawn) | i
COc1ccc(-c2oc3ncn(CCN4CCOCC4)c(=N)c3c2-c2ccc(OC)cc2)cc1 | i
O=C(CN1C2CCCC1CC(NC(=O)c1ccco1)C2)Nc1ccccc1C(F)(F)F (stereo not drawn) | 0.9
CCOc1ccc(Cn2c(C)nc([N+](=O)[O-])c2SCC(O)CCl)cc1[N+](=O)[O-] (stereo not drawn) | 1.1
CCn1c(/C(C#N)=C(\O)CCc2ccccc2)nc2ccccc21 | i
COc1ccc(C2=CC(c3c(C)nn(-c4ccccc4)c3Cl)n3nnnc3N2)cc1OC (stereo not drawn) | 3.1
N#CC1=C(SCc2ccccc2Cl)NC(=O)C(C(N)=O)C1 (stereo not drawn) | i
CCCCn1c(SCC2CCCCO2)nc2cc(S(N)(=O)=O)ccc21 (stereo not drawn) | 0.6
CCn1c(N2CCN(CC(=O)c3c(C)n(C)c4ccccc34)CC2)nc2c1c(=O)[nH]c(=O)n2C | 2.7
Cc1c(NC(=O)CSc2ccc3c(c2)OCCO3)c(=O)n(-c2ccccc2)n1C | 1.1
Cc1ccc(-n2nc(C)c(C3C(C#N)=C(N)Oc4c3c(=O)oc3ccccc43)c2Cl)cc1 (stereo not drawn) | 0.0
Nc1nc(SCC(=O)Nc2ccccc2Sc2ccccc2)n[nH]1 | 1.0
CCOC(=O)C1=C(CSc2nc(CC)c(C)cc2C#N)OC(N)=C(C#N)C1c1ccccc1 (stereo not drawn) | i
Cc1nc2nc(-c3ccccc3)[nH]n2c(=O)c1C | 2.0
Cc1cc(C)c(NC(=O)CSc2nnc(-c3ccco3)n2N)c(C)c1 | 0.2
O=C(Cc1ccccc1)N1CCN(Cc2cccnc2)CC1 | 0.2
O=C(c1ccco1)N1CCN(S(=O)(=O)c2ccc(S(=O)(=O)NC3CC3)cc2)CC1 | i
CCCOC(=O)c1ccc(Cl)c(NC(=O)c2ccc(-c3ccccc3)cc2)c1 | 1.3
O=C(N1CCN(c2ccccc2)CC1)C(F)(F)C(F)(F)F | i
Cc1cc(C(=O)CSc2nn(-c3ccccc3)c(=S)s2)c(C)n1Cc1ccco1 | i
CC1(C(=O)NC23CC4CC(CC(C4)C2)C3)CC1(Cl)Cl (stereo not drawn) | i
Cc1cc(S(=O)(=O)N2CCN(Cc3ccc4c(c3)OCO4)CC2)cc(C)c1N1CCCC1=O | 0.4
COC(=O)CSc1nc(N)c(NC(=O)c2ccc(OC)c(OC)c2)c(=O)[nH]1 | 1.6
CCOC(=O)N1CCN(C(=O)c2nn(-c3cc(OC)cc(OC)c3)c(=O)c3ccccc23)CC1 | 0.3
CCOC(=O)C(C)c1ccc2cc(OC)ccc2c1 (stereo not drawn) | i
COc1cccc(OC)c1OCCCOc1c(OC)cccc1OC | i
COc1ccc2[nH]c3nc(SCc4nnc(-c5ccccc5)o4)nnc3c2c1 | 6.0
NC(=O)CSc1nnc(-c2ccc(S(=O)(=O)N3CCCC3)cc2)n1Cc1ccco1 | 0.6

Next entries.
| SMILES | H5N1 antiviral |
| --- | --- |
| O=C(CN1c2ccccc2Sc2ccccc21)NNC(=S)Nc1ccc(Cl)cc1Cl | 0.7 |
| COC(=O)CNC(=O)c1c(C)cc(=O)oc1C | i |
| COc1ccccc1-c1nc(C#N)c(N2CCC(Cc3ccccc3)CC2)o1 | 0.1 |
| COC(=O)CC1SC(=O)NC1=Nc1ccc(OC)cc1 (stereo not drawn) | 0.1 |
| COc1ccccc1CNC(=O)C1CCC(CNc2c(N3CCOCC3)c(=O)c2=O)CC1 (stereo not drawn) | i |
| CC1=NN(c2nc(-c3ccc(C)cc3)cs2)C(=O)C1N=Nc1ccc2ccccc2c1 (stereo not drawn) | 0.2 |
| CCn1c(SCC(=O)Nc2sc(C)c(C)c2C#N)nnc1C(C)C | i |
| Cc1ccccc1NC(=O)NCCCN1CCN(C2CCCCC2)CC1 | 0.6 |
| O=C1c2ccccc2C(Nc2cccnc2)N1Cc1ccccc1 (stereo not drawn) | 0.8 |
| CCCNS(=O)(=O)c1ccc(NC(=O)c2ccccn2)cc1 | i |
| COc1ccc(-c2nc(-c3ccc(Br)cc3)no2)c(OC)c1 | i |
| CC(Sc1nc(NCc2ccccc2)nc(N(C)C)n1)C(=O)Nc1ccccc1 (stereo not drawn) | 2.1 |
| O=c1ccn(CCOc2ccc(Cl)cc2)c(=O)[nH]1 | 2.3 |
| COc1ccccc1CNC(=O)c1oc2ccc(S(=O)(=O)N3CCCC3)cc2c1C | i |
| COC(=O)c1[nH]c2ccc(F)cc2c1NC(=O)CCN1CC(C)OC(C)C1 (stereo not drawn) | i |
| CCCC(=O)Nc1ccc(Br)c(Cl)c1 | i |
| CCc1c(C)nc2ncnn2c1N1CCC(C(=O)Nc2ccccc2)CC1 | 0.4 |
| C=CCN=C(NC#N)SCc1ccccc1Cl | i |
| Cn1c(Cn2c(=O)sc3ccccc32)nnc1SCC(N)=O | i |
| C=CCN(c1ccc(C(N)=O)cc1)S(C)(=O)=O | 0.5 |
| CC(=O)c1ccc2c(c1)c1ccccc1n2CC(C)C | 0.3 |
| C1=C(c2ccccc2)Nc2nnnn2C1 | i |
| O=C(NC1=NCCS1)C1CC(=O)N(c2ccc(F)cc2)C1 (stereo not drawn) | i |
| Cc1nc(NC(=O)CSc2ccccc2N)sc1C | i |
| CCOc1ccc(Nc2cc(C)nc(-n3nc(C)cc3C)n2)cc1 | 0.3 |
| O=C(NCc1ccc2c(c1)OCO2)c1ccc(COc2cccc(Cl)c2)o1 | i |
| O=C(c1ccc2nc3ccc(Cl)cc3c(=O)n2c1)N1CCOCC1 | i |
| Cc1cc(C)c(C#N)c(SCC(=O)OC2CCCCC2)n1 | 0.8 |
| Cc1ccc(C(=O)c2ccccc2C(=O)O)c(O)c1 | i |
| CCOC(=O)/C(C(C)=O)=C1/OC(=O)c2ccccc21 | 0.6 |

Ordered by molecular weight (smallest number first): five of the compounds above
| SMILES | H5N1 antiviral |
| --- | --- |
| CCOC(=O)/C(C(C)=O)=C1/OC(=O)c2ccccc21 | 0.6 |
| Cc1cc(C)c(C#N)c(SCC(=O)OC2CCCCC2)n1 | 0.8 |
| CCOc1ccc(Nc2cc(C)nc(-n3nc(C)cc3C)n2)cc1 | 0.3 |
| Cc1ccccc1NC(=O)NCCCN1CCN(C2CCCCC2)CC1 | 0.6 |
| COc1ccccc1CNC(=O)C1CCC(CNc2c(N3CCOCC3)c(=O)c2=O)CC1 (stereo not drawn) | i |

The list goes on:
| SMILES | H5N1 antiviral |
| --- | --- |
| CCCCCn1c(N2CCC(C(N)=O)CC2)nc2c1c(=O)[nH]c(=O)n2C | 1.4 |
| COc1ccccc1NS(=O)(=O)c1cc(C)ccc1C | 0.3 |
| COc1cccc(NC(=O)C2CCCN(S(=O)(=O)c3cccc4nsnc34)C2)c1 (stereo not drawn) | i |
| COc1cc(C2C(C(=O)c3cccs3)=C(O)C(=O)N2Cc2ccco2)cc(OC)c1OC (stereo not drawn) | i |
| CCOc1ccccc1NC(=O)CCN1CCN(S(=O)(=O)c2ccc(Br)cc2)CC1 | i |
| O=C(NCCc1ccccn1)c1n[nH]c(=O)c2ccccc12 | 8.7 |
| COc1c(Cl)cc(Cl)cc1/C=N/n1cnnc1 | 0.4 |
| COc1ccc(-c2noc(CCC(=O)NCc3cccnc3)n2)cc1OC | 0.9 |
| Cc1cccc(CSc2ncnc3c2cnn3Cc2ccccc2)c1 | i |
| CCC(C)(C)C1CCC(=NNC(=O)c2ccoc2C)CC1 (stereo not drawn) | i |
| CCC1CCCCN1S(=O)(=O)c1ccc(S(=O)(=O)N2CCN(S(=O)(=O)CC)CC2)cc1 (stereo not drawn) | i |
| O=C1C2CCCN2C(c2cccs2)N1c1ccc(Cl)cc1 (stereo not drawn) | 1.9 |
| CCCOc1cccc(-c2cc(-c3n[nH]c(=S)n3CC)c3ccccc3n2)c1 | 3.2 |
| O=C(Nc1ccc(Br)cc1)c1ccc(N2C(=O)C3CC=C(Cl)CC3C2=O)cc1 (stereo not drawn) | i |
| O=C(NC(=O)c1ccccc1)OCC(F)(F)F | i |
| O=C(N/N=C/c1ccsc1)c1cc(O)cc(O)c1 | i |
| Cc1cccc(N2C(=O)NC3(CCCCC3)C2=O)c1 | i |
| COc1ccccc1Cc1nc(-c2ccc(Br)o2)no1 | i |
| COC(=O)CC1=C(C(=O)OC)C(c2cccs2)C(C#N)=C(N)O1 (stereo not drawn) | i |
| O=C(c1cc2nc(C3CC3)cc(C(F)F)n2n1)N1CCOCC1 | 1.1 |
| CCOC(=O)c1c(C)nc(-c2ccccc2)nc1NC(=O)C(C)C | 2.2 |
| CCCOC(=O)c1ccc(Oc2cn[nH]c2-c2ccc(OCC)cc2O)cc1 | i |
| CC(Sc1nc2ccc(Br)cc2[nH]1)C(=O)O (stereo not drawn) | 0.4 |
| CCN(CC)C(=O)CSc1nnc(-c2cccnc2)n1CCc1ccccc1 | i |
| CCOC(=O)COc1ccc(S(=O)(=O)c2ccc(OCC(=O)OCC)cc2)cc1 | i |
| COc1ccc(OC)c(NC(=O)C(=O)N/N=C/c2ccccc2[N+](=O)[O-])c1 | i |
| CC1=C(C(=O)OCc2ccccc2)C(c2cccnc2)n2nnnc2N1 (stereo not drawn) | i |
| COC(=O)CSc1nnnn1-c1ccccc1 | i |
| CCCSC1=C(C#N)C(c2ccc(Cl)cc2Cl)CC(=O)N1 (stereo not drawn) | i |
| O=C(OCc1c(Cl)cccc1Cl)c1cnccn1 | 0.9 |

(cont.)
| SMILES | H5N1 antiviral |
| --- | --- |
| COc1ccc(OCc2nc(N)nc(Nc3ccccc3OC)n2)cc1 | i |
| CCN(CC)CCNC(=O)C1CCC(=O)N(c2ccc(OC)cc2)C1c1ccc(F)cc1 (stereo not drawn) | 1.2 |
| CCn1c(COc2ccc(=O)n(-c3ccccc3)n2)nnc1SCc1ccccc1C | 0.8 |
| CNC(=O)c1c(NC(=O)c2nc3ccccc3s2)sc2c1CCC2 | 0.6 |
| C=CCn1c(SCC(=O)O)nnc1-c1cccs1 | 2.1 |
| COC(=O)c1ccsc1NC(=O)C1COc2ccccc2O1 (stereo not drawn) | i |
| O=C(c1cc2ccccc2oc1=O)N1CCSC1c1ccco1 (stereo not drawn) | 0.6 |
| O=C1NC2(CCCc3ccccc32)C(=O)N1Cc1nnc(-c2ccccc2Br)o1 (stereo not drawn) | 0.3 |
| COCCCn1c(Cc2ccccc2)nnc1SCC(=O)N1CCCCC1 | 0.5 |
| CC1(C)Oc2ccc(C(=O)N3CCOCC3)cc2N(CC(=O)Nc2ccccc2)C1=O | 1.1 |
| CC(C)(C)SCCNC(=O)CSCc1ccc([N+](=O)[O-])cc1 | 0.4 |

An excerpt. The share of hits here may be higher or lower than overall.
